High-throughput results deposited in PubChem by National Center for Advancing Translational Sciences (NCATS).
LT uptake inh: inhibitors of anthrax lethal toxin internalization; Cells, anthrax lethal toxin internalization, FRET ratio (460/530); Potency, µM (top dose mostly 40 µM), for the others: top-dose activity change, negative = inhibition, actives largely listed as inhibitors; 70,000 tested, 0.67% active; active = well fitted falling ratio curve with the 530 nm signal flat; inconclusive = other ratio curves, or a change in one channel alone; inactive = flat curves in the ratio and both channels; the % refers to the ratio; further: on the % scale 0 is the no-effect control and ±100 the full control effect; nearly all actives have a fitted effect of over 50% in size; tested in ME-180 cells; beta-lactamase reporter
SmPrx2 inh: inhibitors of Schistosoma mansoni peroxiredoxin 2. S. mansoni Prx2 activity coupled to TGR/GSH (TGR is thioredoxin glutathione reductase), NADPH fluorescence loss, qHTS; some inactives read as strong as hits. Potency, µM. 65,000 tested, 0.07% active. AID 448; active means full or partial inhibition curve with a strong effect at the top dose; inconclusive means weaker partial or single-point curve; inactive means no accepted curve; further: series up to 57 µM; many of its hits are not listed in these tables
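Coupled assay in which S. mansoni TGR passes NADPH reducing equivalents via glutathione to Prx2, which reduces H2O2. Compounds were preincubated 15 min at room temperature with 25 nM TGR/50 nM Prx2 mix. Kinetic NADPH fluorescence loss (ex 365/em 450 nm) was monitored.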
* hit, by the source's call; u = inconclusive; x = no result given; [ ] = remark or other dose. Potency means the concentration at half of the fitted maximal effect. A portion of the library; count on the stated rates, not on these rows.

Every second line gives: LT uptake inh, SmPrx2 inh
- COc1ccc(C2c3c(oc4ccccc4c3=O)C(=O)N2CCCN2CCOCC2)cc1 (centres undefined)
 : -4.8%, >57
- COc1ccc(-c2nc3cnc(N(C)C)nc3n(C3CC3)c2=O)cc1
 : u, >57
- CN(CCC#N)C(=O)c1ccc(CNS(=O)(=O)c2ccc(F)cc2)cc1
 : -4.9%, >57
- CS(=O)(=O)N(CCc1ccccc1)CC(=O)NCC1CCCO1 (centres undefined)
 : -8.2%, >57
- O=C(CSc1ccc2nnc(-c3ccncc3)n2n1)NCc1ccco1
 : 6.0%, >57
- CCC(C)NC(=O)c1ccc(CS(=O)(=O)c2ccc(OC)cc2)o1 (centres undefined)
 : -7.4%, >57
- CCSC1(SCC)N=C(N)C2(C#N)C(c3ccc(OC)c(OC)c3OC)C12C#N (centres undefined)
 : 10µM*, >57
- O=C(O)c1ccc2c(c1)C(=O)N(c1ccc(Cl)cn1)C2=O
 : -15.0%, >57
- COc1cc(C)nc(Oc2ccc(/C=N/O)cc2)n1
 : -18.3%, >57
- NC[C@@H]1O[C@H](c2ccccc2)Cc2c1ccc(O)c2O
 : u, >57
- CCOc1ccccc1NC(=O)C1CCN(S(=O)(=O)c2ccc(OC)c(OC)c2)CC1
 : -6.2%, x
- O=C(c1cc2ccccc2c(=O)o1)N1CCc2ccccc2C1
 : 14.4%, >57
- COc1ccc(C2NC(C(=O)O)CS2)cc1COCC(F)(F)F (centres undefined)
 : -10.4%, >57
- CC1(C)CC(=O)C=C(Nc2ccc(F)cc2)C1
 : -13.3%, >57
- O=C(CSc1nc2c(c(=O)n1-c1ccc(Cl)cc1)SCC2)N1CCOCC1
 : -2.4%, >57
- CN(C)C=NCCn1c(N2CCOCC2)nc2c1c(=O)n(C)c(=O)n2C
 : -8.7%, >57
- COc1ccc2nc3c(cc2c1)Cc1ccccc1-3
 : u, >57
- Cc1cccc(N2CCN(C(=O)COc3cc(=O)n(C)c4ccccc34)CC2)c1C
 : u, >57
- CCn1c(=O)cc(OCC(=O)Nc2ccc(C)cn2)c2ccccc21
 : 1.0%, >57
- COc1ccccc1C(=O)NC(CCSC)C(=O)NCC(c1ccco1)N(C)C (centres undefined)
 : 0.1%, >57
- CCn1c2ccccc2c2nnc(SCC(=O)NCCOC)nc21
 : -1.7%, >57
- Nc1c(C(=O)OC2CCCCC2)c2nc3ccccc3nc2n1CC1CCCO1 (centres undefined)
 : u, >57
- CCN(CC)S(=O)(=O)c1ccc(Oc2cccc(C(C)=O)c2)nc1
 : -17.3%, u
- CC(=O)Oc1cccc(N2C(=O)C3C4C=CC(C4=C(C)C)C3C2=O)c1 (centres undefined)
 : -2.9%, x
- O=C(c1csnn1)N1CCC[C@@]2(CCN(c3ccncc3)C2)C1
 : 5.4%, >57
- COc1cc(OC)cc(-c2nc(-c3cc4cc(C)ccc4nc3OC)no2)c1
 : x, >57
- CCOc1cc2[nH]c(=O)n(Cc3ccc(C(=O)NCCOC)cc3)c(=O)c2cc1OCC
 : -4.7%, >57
- CC(=O)c1c(C)[nH]c(C(=O)CSc2nc3ccccc3c(=O)n2CCCN2CCOCC2)c1C
 : u, >57
- Cc1ccc2c(n1)sc1c(N)ncnc12
 : -15.8%, >57
- O=C(C1CCCN(S(=O)(=O)c2cccc3cccnc23)C1)N1CCc2ccccc21 (centres undefined)
 : u, >57
- O=c1cnc2ccccc2n1CC1CCCCC1
 : u, >57
- COc1ccc(C2CC(c3ccc(Cl)cc3Cl)Nc3nc(N)nn32)cc1OC (centres undefined)
 : -14.9%, >57
- S=c1c2[nH]cnc2ncn1CCSc1ncnc2nc[nH]c12
 : -7.7%[8 µM], >57
- CCN(CC)CCOC(=O)C12CC3CC(CC(C3)C1)C2
 : 1.8%, >57
- N=C1C(c2nc(-c3ccc(Cl)cc3)cs2)=C(O)CN1CCCN1CCOCC1
 : 0.0%, >57
- CN(C)C(=O)c1ccc(-c2ccc3ncnc(NC4CC4)c3c2)cc1
 : -8.6%, >57
- O=C(CCCc1c[nH]c2ccccc12)N1CCOCC1
 : -7.7%, >57
- COc1ccc2[nH]c(=O)c(-c3noc(-c4ccc(F)cc4)n3)cc2c1
 : 8.4%, >57
- Cc1ccc(S(=O)(=O)N2C(=O)CCC2C(=O)NCc2ccco2)cc1 (centres undefined)
 : 4.2%, >57
- COc1ccc(Nc2cc(=O)n(C3CCCCC3)c(=O)[nH]2)c(OC)c1
 : -12.5%, >57
- CC(C)(C)[Si](OCC[C@@H]1C[C@@]1(C)[C@@H](NP(=O)(c1ccccc1)c1ccccc1)c1ccccc1)(c1ccccc1)c1ccccc1
 : -12.0%, x
- CCn1c(SCC(=O)NCc2ccco2)nnc1-c1cccs1
 : 0.0%, >57
- O=C(C1CC(c2ccc(Cl)c(Cl)c2)=NO1)N1CCC2(CC1)OCCO2 (centres undefined)
 : -12.9%, >57
- Cc1ccc(-c2nnn(CCC(=O)Nc3ccc4c(c3)OCO4)n2)cc1
 : -2.0%, >57
- Cc1ccccc1C(=O)Nc1ccc(Cl)cn1
 : -12.8%, x
- CCc1ccc(Cn2nnc(C(=O)Nc3cccc(C)c3)c2N)cc1
 : -9.3%, >57
- CN(C)c1ccc(-c2nn3c(-c4ccncc4)nnc3s2)cc1
 : 2.2%, >57
- Cc1nc2ccccc2n1CC(=O)NCCN1CCCC1
 : -19.1%, >57
- Cc1ccc(-c2csc3nnc(SCC(=O)NCc4ccco4)n23)cc1
 : -10.5%, >57
- O=C(Nc1nc2ccccc2[nH]1)c1ccccc1F
 : -6.9%, >57
- COc1ccc(C(=O)COC(=O)CN2C(=O)C3C4C=CC(C4)C3C2=O)cc1 (centres undefined)
 : x, >57
- CCOC(=O)c1oc2c(CN3CCN(C)CC3)c(O)ccc2c(=O)c1-c1ccccc1OC
 : 5.6%, >57
- Cc1nc2ncnn2c(C)c1CCC(=O)NCc1ccco1
 : 9.9%, >57
- O=c1c2c3c(sc2nc2sc(CN4CCOCC4)cn12)CCCC3
 : -22.9%, >57
- CCOC(=O)NC(c1ccccc1)C1CCCCC1=O (centres undefined)
 : 7.4%, >57
- COc1ccccc1-c1nn2c(C3COc4ccccc4O3)nnc2s1 (centres undefined)
 : -8.3%, >57
- Cc1ccc(C)c2[nH]c(=O)c(CCNC(=O)c3ccc(Br)o3)cc12
 : 1.4%, >57
- Cc1cc(NC(=O)C(C)C)ncc1NC(=O)c1cccc(F)c1
 : 10.6%, >57
- O=C1c2ccccc2C(=O)c2c(Nc3cc4c5c(ccc6c7ccc8c9c(cc(Nc%10cccc%11c%10C(=O)c%10ccccc%10C%11=O)c(c3c56)c97)-c3ccccc3C8=O)C(=O)c3ccccc3-4)cccc21
 : 0.5%[8 µM], >57
- COc1ccc(C(=O)Oc2ccc(/C=N/O)cc2)cc1
 : u, x

Reprinted at random: five entries already listed.
Every second line gives: LT uptake inh, SmPrx2 inh
- Cc1nc2ncnn2c(C)c1CCC(=O)NCc1ccco1
 : 9.9%, >57
- Cc1cc(NC(=O)C(C)C)ncc1NC(=O)c1cccc(F)c1
 : 10.6%, >57
- CC(C)(C)[Si](OCC[C@@H]1C[C@@]1(C)[C@@H](NP(=O)(c1ccccc1)c1ccccc1)c1ccccc1)(c1ccccc1)c1ccccc1
 : -12.0%, x
- Cc1ccc(-c2csc3nnc(SCC(=O)NCc4ccco4)n23)cc1
 : -10.5%, >57
- Cc1ccc(C)c2[nH]c(=O)c(CCNC(=O)c3ccc(Br)o3)cc12
 : 1.4%, >57

Continuation.
Every second line gives: LT uptake inh, SmPrx2 inh
- COc1ccc(OC)c(C2N(c3cc(C)on3)C(=O)C3CCCN32)c1 (centres undefined)
 : -2.7%, >57
- COc1ccc(N2CCN(Cc3cc(=O)oc4cc(C)c(Cl)cc34)CC2)cc1
 : -5.9%, >57
- Cc1nc(N2CCc3ccccc32)[nH]c(=O)c1CCC(C)C
 : -3.3%, >57
- COc1ccc(Cl)cc1C(=O)Nc1nnn(C)n1
 : -14.0%, >57
- CCCN1C2CCCC1CC(NC(=O)c1ccc(F)cc1)C2 (centres undefined)
 : -2.3%, >57
- Cc1cc(C(=O)Nc2c(C)nn(Cc3ccccc3Cl)c2C)no1
 : u, >57
- CN1CCN(CCCBr)CC1
 : -8.2%[8 µM], >57
- CC(NC(=O)c1ccc(Cl)cc1)C(=O)N1CCCCC1 (centres undefined)
 : 13.4%, >57
- O=C(Nc1ccc(F)cc1)c1cccc2c1C(=O)N(Cc1ccccn1)C2
 : 2.6%, >57
- Oc1ccc2c3c1O[C@H]1c4c(c5ccccc5n4Cc4ccccc4)C[C@]4(O)[C@H](C2)N(CC2CC2)CC[C@@]314
 : 25.1µM*, >57
- COc1cccc(C(=O)Cn2c(=O)n(CC3CCCO3)c(=O)c3ccccc32)c1 (centres undefined)
 : -28.2%, >57
- O=S(=O)(N1CCCCC1)N1CCCN(S(=O)(=O)N2CCCCC2)CC1
 : 11.8%, >57
- O=C(c1cc(-c2ccccc2O)on1)N1CCc2ccccc2C1
 : u, >57
- CCN(C(=O)c1c(-c2ccccc2)noc1C)c1ccccc1
 : -5.9%, >57
- Cc1cc(Br)ccc1NC(=O)C1CCCO1 (centres undefined)
 : -10.9%, >57
- O=C(NCc1ccc(F)cc1)c1cccc(S(=O)(=O)N2CCCC2)c1
 : -5.3%, >57
- CCOC(=O)N1CCN(C(=O)CSc2cc(C)nc3c(-c4ccccc4OC)c(C)nn23)CC1
 : -1.0%, >57
- COC(=O)c1ccc(C2CC(=O)Nc3cc(OC)c(OC)c(OC)c32)cc1 (centres undefined)
 : x, >57
- CC(=O)Nc1cccc(Oc2cc(C#N)c(C#N)cc2N2CCCCCC2)c1
 : 8.3%, >57
- N=C1C(c2ccccc2)=C(O)CN1c1ccccc1N1CCOCC1
 : -10.1%, >57
- Cn1c(N2CCCCC2)nc2c1c(=O)n(Cc1cccc(Br)c1)c(=O)n2C
 : -18.5%, >57
- COc1ccc(C(=O)N2CCCC2)cc1
 : 22.9%, >57
- CCCC(=O)Nc1ccccc1N1CCN(C(=O)c2ccccc2)CC1
 : 4.1%, >57
- COc1ccc2[nH]c(=O)c(CN(C(=O)COc3ccccc3)C(C)C)cc2c1
 : -23.4%, >57
- CN(C)c1nc(SCCOC(=O)Nc2ccccc2)nc(N(C)C)n1
 : u, >57
- O=C(NCc1cccs1)c1csc2c1CCCCC2
 : u, >57
- O=C(Oc1ccccc1)N1CCC2(CC1)CN(Cc1ccncc1)C2
 : -3.7%, >57
- Cc1ccnc(NS(=O)(=O)c2ccc(NC(=O)Cc3cccs3)cc2)n1
 : -7.4%, >57
- Cc1nc(NCC2CCCO2)c2nnn(Cc3ccccc3)c2n1 (centres undefined)
 : 13.4%, >57
- CN(C(=O)c1ccccn1)c1nnc(-c2ccncc2)s1
 : -12.9%, >57
- C(#Cc1ccccc1)CN1CCN(c2ccccn2)CC1
 : -3.5%, >57
- CC(C)NC(=O)NC(=O)COc1cccc2c1OC(C)(C)C2
 : 1.0%, >57
- S=c1nc(C2CC2)[nH]c2ccccc12
 : u, >57
- CCCC(=O)NCCc1nc2ccccc2n1CCC
 : 1.8%, >57
- Cc1nn(-c2ccccc2)c(N2CCCCC2)c1/C=N/O
 : -11.7%, x
- Cc1cc(NC(=O)CCCC(=O)O)nc(C)n1
 : u, >57
- O=C(c1ccc(CN2CCOCC2)cc1)N1CCC(Cc2ccccc2)CC1
 : 1.5%, x
- O=C1CNC(=O)N1Cc1ccc(Br)cc1
 : 4.2%, >57
- CCCn1c(SCC(=O)Nc2nnc(C)s2)nnc1-c1ccoc1C
 : -1.9%, >57
- Cc1c(C(=O)OC(C)CCN(C)C)oc2ccccc12 (centres undefined)
 : u, >57

At a glance, three of the compounds above.
Every second line gives: LT uptake inh, SmPrx2 inh
- O=C1CNC(=O)N1Cc1ccc(Br)cc1
 : 4.2%, >57
- CCCn1c(SCC(=O)Nc2nnc(C)s2)nnc1-c1ccoc1C
 : -1.9%, >57
- Cc1c(C(=O)OC(C)CCN(C)C)oc2ccccc12 (centres undefined)
 : u, >57

The results go on:
Every second line gives: LT uptake inh, SmPrx2 inh
- c1ccc(CSc2nnc(NC3=NCCCCC3)s2)cc1
 : 12.7%, >57
- c1cn(CCCNC2=NCCCCC2)cn1
 : 5.1%, >57
- NC(=O)CSc1oc(-c2cccs2)nc1S(=O)(=O)c1ccccc1
 : -5.7%, >57
- CCOC(=O)C(CO)(NC(C)=O)C(=O)OCC
 : -3.6%, >57
- Cc1ccc2[nH]c(=O)c(CN(Cc3nnnn3Cc3ccccc3)C3CCCC3)cc2c1
 : -19.6%, >57
- FC(F)(F)c1ccccc1-c1cc(NCc2cccs2)ncn1
 : -3.1%, >57
- CC(C(=O)N(C1CC1)C1(C(=O)Nc2ccccc2)CCCC1)N1C(=O)c2ccccc2C1=O (centres undefined)
 : -6.3%, >57
- COc1ccc(Nc2oc(COc3cccc(C)c3)nc2C#N)cc1
 : u, >57
- O=C1C2CCC(C(O)C2)N1Cc1ccccc1 (centres undefined)
 : -4.3%, >57
- CN[C@H]1[C@H](C)O[C@@H](O[C@@H]2C/C=C(/C)C/C(C)=C\C=C/CC[C@@H](C)CNC(=O)/C=C\C=C/[C@H]2C)C[C@@H]1O
 : u, >57
- c1ccc(-c2cnc(-c3cccnc3)o2)cc1
 : -0.5%, x
- Cn1cccc1C(=O)N1CCC2(CCCN(c3ccc(-c4ccccc4)cc3)C2)CC1
 : -18.8%, >57
- N#Cc1cc2c(=O)n3ccccc3nc2n(CCCn2ccnc2)c1=N
 : u, >57
- COc1ccc(NC(=O)c2ccco2)cc1NC(=O)c1cccnc1
 : -11.6%, >57
